Assay outcomes from PubChem BioAssay.
CtBP-E1A blk – CtBP/E1A binding inhibition; activity change, % (test concentration not listed); actives 0.49% (n = 340,000); AlphaScreen GST-E1A/His-CtBP binding, 1536-well; stronger effect = lower value; control for the full effect not named in the record; in the data active means activity change below about -65%; inconclusive means about -30% to -65%; inactive means above about -30%; note: % is set by controls: 0 for no effect and ±100 for the full control effect; compound concentration not given in the record
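In 5 uL wells, 23 nL compound meets equimolar GST-E1A and His-CtBP (5X stock 125 nM each) for 2 h, 37 °C. Beads (5X, 50 ug/mL) then 1 h, 37 °C, dark.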
Six1-Eya2 blk – Six1/Eya2 interaction inhibition | Q15475+O00167 | AlphaScreen GST-Six1/His-Eya2 binding, biochemical; stronger effect = lower value; control for the full effect not named in the record | activity change, % (concentration not given with the values) | actives 0.56% (n = 360,000); in the data active = activity change below about -65%; inconclusive = about -30% to -65%; inactive = above about -30%; note: % is set by controls: 0 for no effect and ±100 for the full control effect
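AlphaScreen luminescence read after one hour at 37 °C in darkness. Pin-transferred compounds met GST-Six1 and His-Eya2 protein (5X stock 250 nM/500 nM) plus glutathione donor and Ni-chelate acceptor beads (5X, 50 ug/mL).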
PINK1 expr mod – PINK1 expression modulation; actives 0.2% (n = 410,000); Potency, µM (series often up to 76.6 µM), without a hit: at the highest dose activation (PINK1 increase), usual class: activators; PINK1 immunofluorescence, high-content cytometry, 24 h; active = well fitted activation curve with a large enough effect; inconclusive = small, poorly fitted or top-dose-only effect; inactive = flat fitted curve, though single readings scatter; cell line not stated here;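 note: potency is the fitted concentration of half-maximal effect; % of control where 0% means no effect; nearly all actives have a fitted effect of over 65% in size; a mitochondrial uncoupler was the plate control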
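Compound titrations (5 concentrations, 24 h) on a stable cell line; DMSO and CCCP controls. Endpoint: fixed-cell PINK1 immunofluorescence with mitochondrial, cell and nuclear markers, scanned by microplate cytometer.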
TRPML1 agonist – activates the human TRPML1 channel | TRPML1-expressing cells, Ca2+ dye fluorescence, FDSS; host cell line not named in the record; reference of the full effect not given here | activation, % (test concentration not listed) | actives 0.12% (n = 410,000) | AID 624414; in the data active = activation above about 50%; inconclusive = about 30% to 50%; inactive = below about 30%; note: 0% is about no effect; the text of the record puts the active cut at 80%
Target sequence (Q9GZU1 whole entry, looked up): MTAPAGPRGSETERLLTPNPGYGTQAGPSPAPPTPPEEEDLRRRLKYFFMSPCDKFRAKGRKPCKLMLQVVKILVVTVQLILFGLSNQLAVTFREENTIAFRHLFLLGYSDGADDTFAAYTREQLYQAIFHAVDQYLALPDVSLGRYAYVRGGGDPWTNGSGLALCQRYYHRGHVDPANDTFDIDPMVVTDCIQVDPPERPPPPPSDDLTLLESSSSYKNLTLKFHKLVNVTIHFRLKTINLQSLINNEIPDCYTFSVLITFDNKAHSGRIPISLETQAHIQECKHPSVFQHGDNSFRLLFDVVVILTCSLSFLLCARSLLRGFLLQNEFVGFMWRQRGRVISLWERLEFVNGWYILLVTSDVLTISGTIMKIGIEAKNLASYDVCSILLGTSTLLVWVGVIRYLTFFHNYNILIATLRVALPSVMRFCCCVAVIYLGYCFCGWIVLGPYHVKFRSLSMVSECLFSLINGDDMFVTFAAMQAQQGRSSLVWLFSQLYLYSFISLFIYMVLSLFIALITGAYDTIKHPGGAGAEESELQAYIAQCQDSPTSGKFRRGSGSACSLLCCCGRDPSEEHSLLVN
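Cells: TRPML1-DL, 1X Tet inducer, ~16 h at 37 degrees C/5% CO2. Dye: ABD Ca8 no-wash + quencher, 45-90 min RT. Read: 10 s baseline, compound add, 110 s agonist phase; 54-4 EC80 (4uM final), 110 s antagonist phase.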
TRPML1 blocker – blocks the human TRPML1 channel | AID 624415 | activity change, negative = inhibition, % (concentration not given with the values) | Q9GZU1 | actives 0.02% (n = 390,000) | TRPML1-inducible cells, Ca2+ dye fluorescence, FDSS; stronger effect = lower value; inhibition of EC80 agonist-evoked calcium signal; in the data active means activity change below about -50%; inconclusive means about -30% to -50%; inactive means above about -30%;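 note: stimulus is agonist 54-4 at its EC80 concentration; % is set by controls: 0 for no effect and ±100 for the full control effect; compound concentration not given in the record; the text of the record puts the active cut at -80%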
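Calcium fluorescence in TRPML1-DL cells induced overnight with Tet: a 110 s read after compound pin addition, then a 110 s antagonist read after challenge with 54-4 at 4 uM final (EC80).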
D2 ag – activates the human D2 dopamine receptor | P14416 | DiscoveRx PathHunter D2 beta-arrestin, luminescence, 90 min; 100% = 57 uM dopamine signal | activation, % (no concentration beside the values) | actives 0.084% (n = 360,000); in the data active = activation above about 40%; inconclusive = about 15% to 40%; inactive = below about 15%; note: compound concentration not given in the record; the text of the record calls up to 30% inactive
Target sequence (P14416 whole entry, looked up): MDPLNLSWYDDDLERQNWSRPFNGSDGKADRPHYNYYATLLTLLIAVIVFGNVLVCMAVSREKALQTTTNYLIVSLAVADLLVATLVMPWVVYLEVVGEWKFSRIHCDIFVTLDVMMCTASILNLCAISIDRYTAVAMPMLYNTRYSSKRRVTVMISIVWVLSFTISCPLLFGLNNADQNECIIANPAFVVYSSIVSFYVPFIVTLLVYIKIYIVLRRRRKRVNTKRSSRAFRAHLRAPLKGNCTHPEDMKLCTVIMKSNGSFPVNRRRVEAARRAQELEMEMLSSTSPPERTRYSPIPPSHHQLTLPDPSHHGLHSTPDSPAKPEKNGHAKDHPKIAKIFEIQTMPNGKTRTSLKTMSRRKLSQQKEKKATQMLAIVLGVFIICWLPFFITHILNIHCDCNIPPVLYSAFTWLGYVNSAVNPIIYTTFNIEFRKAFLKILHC
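DiscoveRx PathHunter D2 beta-arrestin cells (2,100/well) attached overnight, then compound-stimulated 90 min at 37 C in HBSS/10 mM HEPES/0.1% Tween-20 buffer; beta-galactosidase complementation read by luminescence after 1 h at ambient temperature. Dopamine 57 uM final (EC100) as control.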
Numbers without * were called inactive; ? = inconclusive; · = not tested or not shown; & = joins results of further samples.

SMILES	CtBP-E1A blk	Six1-Eya2 blk	PINK1 expr mod	TRPML1 agonist	TRPML1 blocker	D2 ag
O=C(c1cc2n(n1)C(C(F)(F)F)CC(c1ccco1)N2)N1CCN(c2ccccn2)CC1 (centres undefined)	14	0	0.2%	1.0	-6	-1.5
FC(F)(F)c1cc(C(F)(F)F)c2ccc(N3CCN(c4ccc(Cl)cc4)CC3)nc2n1	1	6	·	-0.3	12	-1.7
Cc1noc(C(=O)N2CCN(c3ccc(F)cc3)CC2)c1Cl	3	0	-0.6%	-0.5	-11	-3.1
CCCc1nnc(SCC(=O)Nc2cccc(C(F)(F)F)c2)o1	3	6	1.5%	-0.6	3	-4.8
O=C1c2ccccc2C(=O)c2c1cccc2N1CCN(Cc2ccccc2)CC1	-94*	-89*	10%	3.0	10	-9.5
O=C(NC(=S)Nc1ccc(Cc2ccncc2)cc1)c1ccccc1	-15	-8	1.4%	1.1	-2	3.6
Cc1nnc(SCC(=O)c2c(N)n(Cc3ccccc3)c(=O)n(C)c2=O)n1C	-5	3	1.8%	0.2	-5	-5.4
C=CCc1ccccc1OCC(CN1CCCCC1)OC(C)=O (centres undefined)	-4	-1	-1.0%	-0.7	-5	-4.9
O=S(=O)(c1ccc(F)cc1)N1CCN(C(=S)NCc2ccco2)CC1	-4	-7	-0.2%	0.6	15	-1.1
CC(C)C(=O)NCCc1nc(-c2ccccc2)no1	·	3	0.6%	0.3	7	-4.0
COCCn1c(SCC(=O)N2CCOCC2)nc2c(c1=O)SCC2	5	2	1.1%	0.3	5	-0.3
CC(=O)C1=C(O)C=C(c2ccco2)CC1c1ccco1 (centres undefined)	-6	-2	1.0%	0.1	-2	-3.6
Cc1ccc(C(=O)NCC(=O)N2CCN(c3ccccc3)CC2)cc1	·	2	1.1%	1.0	14	-2.2
CCC(C)Nc1oc(-c2ccc(COc3ccc(Cl)cc3)o2)nc1C#N (centres undefined)	·	·	-0.6%	1.3	56	·
Cc1cc(=O)[nH]c2nnc(SCC(=O)Nc3ccc(OC(F)(F)F)cc3)n12	·	·	3.8%	1.6	-13	·
Cc1cccc(-c2nn3c(=O)cc(CN4CCN(C(=O)c5ccccc5Br)CC4)nc3s2)c1	·	·	5.2%	-0.5	-6	·
O=C(NCCc1ccccc1)C(=O)Nc1ccc([N+](=O)[O-])cc1	11	3	2.8%	-0.6	8	-5.1
Cc1ccccc1C(=O)Nc1ccnn1C1CCN(Cc2ccncc2)CC1	7	-5	3.5%	-0.2	2	-4.8
Cc1ccc(Cl)cc1NC(=O)CCS(=O)(=O)c1cccc2nonc12	11	-1	9.5%	-0.5	-15	-3.1
Cc1cccc(N(C)C(=O)C2CCC(CNS(=O)(=O)c3cccc4nsnc34)CC2)c1 (centres undefined)	·	·	0.7%	-0.8	-11	·
O=C(COC(=O)CNC(=O)c1ccc(Cl)cc1Cl)NCc1ccco1	7	3	0.5%	0.1	10	-1.4
Cc1c(NC(=O)CN2C(=O)NC(CCc3ccccc3)C2=O)c(=O)n(-c2ccccc2)n1C (centres undefined)	3	-2	1.7%	-0.7	3	0.4
COc1ccc(COC[C@H](CC(C)C)N2CCN(C(=O)c3cccc(C(F)(F)F)c3)CCC2=O)cc1	-20	10	1.3%	-1.0	·	·
CCCCNC(=O)N1CCC(CCC(=O)N(C)Cc2ccccc2)CC1	3	1	1.2%	0.5	-5	9.8
Cc1nn(C)c(C)c1NS(=O)(=O)c1ccccc1Cl	0	9	0.3%	0.6	-6	-0.1

Three compounds already listed, arranged by number of heavy atoms, descending:
SMILES	CtBP-E1A blk	Six1-Eya2 blk	PINK1 expr mod	TRPML1 agonist	TRPML1 blocker	D2 ag
O=C(c1cc2n(n1)C(C(F)(F)F)CC(c1ccco1)N2)N1CCN(c2ccccn2)CC1 (centres undefined)	14	0	0.2%	1.0	-6	-1.5
CCC(C)Nc1oc(-c2ccc(COc3ccc(Cl)cc3)o2)nc1C#N (centres undefined)	·	·	-0.6%	1.3	56	·
Cc1ccc(C(=O)NCC(=O)N2CCN(c3ccccc3)CC2)cc1	·	2	1.1%	1.0	14	-2.2

Further compounds.
SMILES	CtBP-E1A blk	Six1-Eya2 blk	PINK1 expr mod	TRPML1 agonist	TRPML1 blocker	D2 ag
COc1ccc(S(=O)(=O)NCc2ccc3c(c2)CCN3C(C)=O)cc1OC	·	·	0.0%	1.8	-3	·
CN(Cc1ccc(F)cc1)S(=O)(=O)c1nnc(NC(=O)c2ccccc2Br)s1	·	0	1.6%&0.8%	0.0&0.7	?	5.8
CCc1ccccc1NC(=S)N1CCC(NC(=O)c2ccc(OC)cc2)CC1	9	4	4.0%	-0.2	-10	-1.0
CSCCC(=O)N1CCCC(CNC(=O)c2ccc(-c3ccccc3)cc2)C1 (centres undefined)	·	-3	0.8%	0.6	5	0.2
CCC(C)(C)n1nnnc1C(c1cc(OC)c(OC)c(OC)c1)N1CCN(c2ccccc2)CC1 (centres undefined)	14	7	2.8%	-0.7	-4	-1.7
CC(C)c1ccc(C2(C)NC(=O)N(CC(=O)NC3CCCC(C)C3C)C2=O)cc1 (centres undefined)	2	3	3.0%	1.1	7	-5.4
CSc1nc(NCc2ccco2)c2ccccc2n1	-5	-16	2.7%	-0.6	0	-1.6
CC(=O)N1c2ccc(S(=O)(=O)NCCC(=O)NCCc3cccc(C)c3)cc2CC1C (centres undefined)	-3	7	-1.8%	1.4	-16	-2.2
Fc1ccc(C(NCCc2ccc(Cl)cc2)c2nnc(-c3ccccc3)o2)c(Cl)c1 (centres undefined)	·	·	9.2%	5.6	-15	·
COc1ccccc1C1Nc2ccccc2NC2=C1C(=O)CC(C)(C)C2 (centres undefined)	-7	11	0.2%	0.0	-13	0.5
O=C(NCCCN1CCCC1=O)Nc1ccc(Cl)cc1	5	0	?	0.5	-3	0.3
COc1ccccc1Nc1nn2c(=O)c3ccc(C(=O)NC(C)c4ccccc4)cc3nc2s1 (centres undefined)	·	·	-5.3%	0.6	54	·
Clc1ccc(-c2noc3ncnc(NCCCN4CCN(c5ccccc5)CC4)c23)cc1	·	·	4.9%	0.8	30	·
Cc1cc(C)nc(NC(=S)Nc2ccccc2)n1	8	-4	-1.7%	2.1	23	6.6
Cc1ccc(CN2C(=O)C(=O)N(CC(N)=O)C2=O)cc1	6	6	3.9%	0.0	-10	-2.6
Cc1nn(CC(=O)N(C)Cc2ccccc2)c(=O)c2cccn12	·	4	3.2%	-0.3	-6	4.3
c1ccc(-c2nnc(-c3ccccc3)c(-c3c[nH]c4ccccc34)n2)cc1	-3	6	15%	0.8	-3	1.2
CCNC(=O)C1CC(=O)N(c2ccc(Br)cc2)C1 (centres undefined)	6	0	-0.6%	-0.6	-2	1.0
Cc1ccc(C(=O)N2CCN(c3ccccc3)CC2)cc1NC(=O)c1nsc2ccccc12	·	·	-1.1%	2.0	41	·
Cc1cccc(NC(=O)Nc2ccc(S(N)(=O)=O)cc2)c1	2	-3	-0.2%	1.0	3	8.3
Cc1onc(-c2ccccc2)c1-c1csc(N/N=C/c2ccccc2Cl)n1	-10	-2	1.9%	-0.7	20	-3.1
Cc1ccc(S(=O)(=O)Nc2ccc3c(c2)C(=O)N([C@H](C)CO)C[C@H](C)[C@@H](CN(C)Cc2ccccc2)O3)cc1	-5	-1	1.3%	0.7	1	-2.9
CC(C)CC(=O)Nc1nnc(CSCc2ccc(F)cc2)s1	·	4	1.7%	-0.7	3	-3.4
Cc1csc(SCC(=O)Nc2cc(S(=O)(=O)N3CCOCC3)ccc2N2CCOCC2)n1	4	2	2.5%	-0.6	25	-1.6
CCCCN1CC(=O)N2[C@H](c3ccc(Cl)cc3)[C@@H]3C(=O)N(CC)C(=O)[C@@H]3[C@]2(Cc2ccccc2)C1=O	27	14	-0.2%	-0.3	-6	-7.1
CCNC(=O)C1(C)CCCN(C(=O)c2cc(-c3ccccc3)cs2)C1 (centres undefined)	4	7	1.2%	-0.2	·	-3.4
Cc1cc(C)cc(NC(=O)CCc2c(C)nn(-c3ccc(N4CCCC4)nn3)c2C)c1	·	·	4.3%	0.1	-21	·

16 consecutive records already listed:
SMILES	CtBP-E1A blk	Six1-Eya2 blk	PINK1 expr mod	TRPML1 agonist	TRPML1 blocker	D2 ag
COc1ccccc1Nc1nn2c(=O)c3ccc(C(=O)NC(C)c4ccccc4)cc3nc2s1 (centres undefined)	·	·	-5.3%	0.6	54	·
Clc1ccc(-c2noc3ncnc(NCCCN4CCN(c5ccccc5)CC4)c23)cc1	·	·	4.9%	0.8	30	·
Cc1cc(C)nc(NC(=S)Nc2ccccc2)n1	8	-4	-1.7%	2.1	23	6.6
Cc1ccc(CN2C(=O)C(=O)N(CC(N)=O)C2=O)cc1	6	6	3.9%	0.0	-10	-2.6
Cc1nn(CC(=O)N(C)Cc2ccccc2)c(=O)c2cccn12	·	4	3.2%	-0.3	-6	4.3
c1ccc(-c2nnc(-c3ccccc3)c(-c3c[nH]c4ccccc34)n2)cc1	-3	6	15%	0.8	-3	1.2
CCNC(=O)C1CC(=O)N(c2ccc(Br)cc2)C1 (centres undefined)	6	0	-0.6%	-0.6	-2	1.0
Cc1ccc(C(=O)N2CCN(c3ccccc3)CC2)cc1NC(=O)c1nsc2ccccc12	·	·	-1.1%	2.0	41	·
Cc1cccc(NC(=O)Nc2ccc(S(N)(=O)=O)cc2)c1	2	-3	-0.2%	1.0	3	8.3
Cc1onc(-c2ccccc2)c1-c1csc(N/N=C/c2ccccc2Cl)n1	-10	-2	1.9%	-0.7	20	-3.1
Cc1ccc(S(=O)(=O)Nc2ccc3c(c2)C(=O)N([C@H](C)CO)C[C@H](C)[C@@H](CN(C)Cc2ccccc2)O3)cc1	-5	-1	1.3%	0.7	1	-2.9
CC(C)CC(=O)Nc1nnc(CSCc2ccc(F)cc2)s1	·	4	1.7%	-0.7	3	-3.4
Cc1csc(SCC(=O)Nc2cc(S(=O)(=O)N3CCOCC3)ccc2N2CCOCC2)n1	4	2	2.5%	-0.6	25	-1.6
CCCCN1CC(=O)N2[C@H](c3ccc(Cl)cc3)[C@@H]3C(=O)N(CC)C(=O)[C@@H]3[C@]2(Cc2ccccc2)C1=O	27	14	-0.2%	-0.3	-6	-7.1
CCNC(=O)C1(C)CCCN(C(=O)c2cc(-c3ccccc3)cs2)C1 (centres undefined)	4	7	1.2%	-0.2	·	-3.4
Cc1cc(C)cc(NC(=O)CCc2c(C)nn(-c3ccc(N4CCCC4)nn3)c2C)c1	·	·	4.3%	0.1	-21	·
